D2 ag – activates the human D2 dopamine receptor; DiscoveRx PathHunter D2 beta-arrestin, luminescence, 90 min; 100% = 57 uM dopamine signal; 360,000 compounds, 0.084% hits; AID 624465; activation, % (no concentration beside the values); P14416; in the data active = activation above about 40%; inconclusive = about 15% to 40%; inactive = below about 15%; note: compound concentration not given in the record; the text of the record calls up to 30% inactive
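DiscoveRx PathHunter D2 beta-arrestin cells (2,100/well) attached overnight, then compound-stimulated 90 min at 37 C in HBSS/10 mM HEPES/0.1% Tween-20 buffer; beta-galactosidase complementation read by luminescence after 1 h at ambient temperature. Dopamine 57 uM final (EC100) as control.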
PINK1 expr mod – PINK1 expression modulation. Potency, µM (series often up to 76.6 µM), inactives show top-dose activation (PINK1 increase), actives largely listed as activators. 410,000 compounds, 0.2% hits. PINK1 immunofluorescence, high-content cytometry, 24 h; active = well fitted activation curve with a large enough effect; inconclusive = small, poorly fitted or top-dose-only effect; inactive = flat fitted curve, though single readings scatter; cell line not stated here;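 note: potency is the fitted concentration of half-maximal effect; % of control where 0% means no effect; nearly all actives have a fitted effect of over 65% in size; a mitochondrial uncoupler was the plate control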
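Stable cell line, 250 cells/well, 12 h attachment; compounds pinned at 5 concentrations, 24 h; CCCP control. Fixed with nuclear dye, primary antibodies 12 h at 10 degrees C, secondary plus cell stain; laser-scanning cytometer read.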
CtBP-E1A blk – blocks the CtBP interaction with E1A | AlphaScreen GST-E1A/His-CtBP binding, 1536-well; stronger effect = lower value; control for the full effect not named in the record | activity change, % (test concentration not listed) | AID 651724 | 340,000 compounds, 0.49% hits; in the data active means activity change below about -65%; inconclusive means about -30% to -65%; inactive means above about -30%; note: % is set by controls: 0 for no effect and ±100 for the full control effect
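Protein mix (5X: 125 nM each GST-E1A, His-CtBP) was incubated with pinned compound 2 h at 37 deg C in dark, in 50 mM Tris pH 8.0 buffer with 300 mM NaCl. Glutathione donor and nickel acceptor beads followed; AlphaScreen signal read after 1 h.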
TRPML1 ag – activates the human TRPML1 channel; TRPML1-expressing cells, Ca2+ dye fluorescence, FDSS; host cell line not named in the record; reference of the full effect not given here; activation, % (test concentration not listed); 410,000 compounds, 0.12% hits; AID 624414; in the data active = activation above about 50%; inconclusive = about 30% to 50%; inactive = below about 30%; note: 0% is about no effect; the text of the record puts the active cut at 80%
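TRPML1-DL cells, Tet-induced overnight (~16 h, 37 degrees C), loaded 45-90 min at room temperature with Ca8 no-wash calcium dye plus quencher. FDSS fluorescence: 10 s baseline, compound pin-transfer, 110 s agonist read, then EC80 54-4 (4uM final) and 110 s antagonist read.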
Six1-Eya2 inh – blocks human Six1 binding to Eya2 | Q15475+O00167 | AlphaScreen GST-Six1/His-Eya2 binding, biochemical; stronger effect = lower value; control for the full effect not named in the record | 360,000 compounds, 0.56% hits | activity change, % (concentration not given with the values); in the data active = activity change below about -65%; inconclusive = about -30% to -65%; inactive = above about -30%; note: % is set by controls: 0 for no effect and ±100 for the full control effect
Target sequence (O00167 whole entry, looked up): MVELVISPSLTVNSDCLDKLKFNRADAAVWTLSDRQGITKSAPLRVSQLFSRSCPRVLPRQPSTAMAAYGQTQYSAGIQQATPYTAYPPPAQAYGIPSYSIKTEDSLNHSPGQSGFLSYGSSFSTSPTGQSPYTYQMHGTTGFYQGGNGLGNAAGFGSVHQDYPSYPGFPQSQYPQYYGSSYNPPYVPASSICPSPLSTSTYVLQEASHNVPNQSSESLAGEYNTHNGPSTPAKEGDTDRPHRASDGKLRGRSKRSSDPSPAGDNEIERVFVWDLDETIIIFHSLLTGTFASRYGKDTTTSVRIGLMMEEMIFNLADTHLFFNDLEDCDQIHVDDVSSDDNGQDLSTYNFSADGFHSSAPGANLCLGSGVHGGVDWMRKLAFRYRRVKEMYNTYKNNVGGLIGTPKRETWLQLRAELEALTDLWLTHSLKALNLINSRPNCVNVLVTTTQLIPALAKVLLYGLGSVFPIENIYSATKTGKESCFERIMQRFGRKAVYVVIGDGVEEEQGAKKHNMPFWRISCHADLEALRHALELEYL
Target sequence (Q15475 whole entry, looked up): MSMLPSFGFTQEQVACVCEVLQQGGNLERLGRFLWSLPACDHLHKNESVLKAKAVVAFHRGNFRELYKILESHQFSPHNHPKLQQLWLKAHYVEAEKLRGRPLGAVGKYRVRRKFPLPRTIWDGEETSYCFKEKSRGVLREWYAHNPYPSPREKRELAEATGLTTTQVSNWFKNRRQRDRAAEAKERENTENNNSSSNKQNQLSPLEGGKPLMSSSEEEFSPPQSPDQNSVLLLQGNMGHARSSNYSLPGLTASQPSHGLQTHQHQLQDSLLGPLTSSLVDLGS
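Compounds are tested against tagged Six1 and Eya2 proteins bridged by glutathione donor and nickel acceptor beads; after a one-hour incubation at 37 °C without light, AlphaScreen emission is recorded.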
TRPML1 inh – inhibitors of human TRPML1 channel; TRPML1-inducible cells, Ca2+ dye fluorescence, FDSS; stronger effect = lower value; inhibition of EC80 agonist-evoked calcium signal; 390,000 compounds, 0.02% hits; AID 624415; Q9GZU1; activity change, negative = inhibition, % (no concentration beside the values); in the data active means activity change below about -50%; inconclusive means about -30% to -50%; inactive means above about -30%;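 note: stimulus is agonist 54-4 at its EC80 concentration; % is set by controls: 0 for no effect and ±100 for the full control effect; compound concentration not given in the record; the text of the record puts the active cut at -80%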
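TRPML1-DL cells, Tet-induced overnight (~16 h, 37 °C) at 1,500 cells/well, were loaded with Ca8 no-wash dye plus quencher for 45-90 min at room temperature. Compounds were pinned during FDSS kinetic reading; agonist 54-4 at EC80 (4 uM final) then added.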
Numbers without * were called inactive; ? = inconclusive; · = not tested or not shown; [ ] = dose if it differs, or a comment.

Fields – CtBP-E1A blk	PINK1 expr mod	TRPML1 inh	D2 ag	Six1-Eya2 inh	TRPML1 ag
> CCN1CCN(CCNC(=O)c2cc(Cl)c(NC(=O)C3=C(C)OCCS3)cc2OC)CC1
→ ·	0.2%	8	-1.6	-8	0.4
> COc1ccc(C2Nc3cccc4cccc(c34)N2)cc1
→ 3	-1.2%	10	2.8	-8	1.7
> Cc1cc(C)c(/C=C/c2onc(C)c2S(=O)(=O)N2CCC(C(=O)Nc3ccc(Cl)c(C(F)(F)F)c3)CC2)c(C)c1
→ ·	0.9%	-17	·	·	0.5
> O=C(CCN1CCN(c2ccccc2)CC1)Nc1ccc2c(c1)OCO2
→ -8	-3.5%	20	?	-6	1.7
> COc1ccc(C)cc1NC(=O)C1CCCN(S(=O)(=O)c2ccc(-n3cnnn3)cc2)C1 (centres undefined)
→ 2	2.0%	13	-1.3	-4	-0.1
> COc1ccc(OC)c(CNc2nc3ccccc3n2CCN2CCCCC2)c1
→ -14	5.7%[38.3 µM]	-5	-4.8	-22	-0.8
> O=C(COC(=O)c1cccnc1)c1ccc(Cl)cc1
→ -13	3.0%	22	-3.8	5	-0.3
> O=C(Nc1ccnn1C1CCN(Cc2ccccc2)CC1)C1CCCC1
→ 2	-0.3%	5	-2.9	0	0.3
> O=C(Nc1ccccc1)c1ccccc1N=Cc1ccccc1O
→ 0	-0.9%	2	-2.2	10	-0.7
> CC(=O)Oc1cccc(/C=C2\C=C(c3ccc(C)cc3)OC2=O)c1
→ 4	-0.9%	-5	-5.8	-12	-0.8
> CCC(=O)NC(=S)Nc1ccc(NC(=O)COc2ccccc2)cc1
→ -5	7.3%	7	2.9	2	0.4
> O=C(c1ccncc1)c1ccc(NS(=O)(=O)c2ccc(Br)s2)cc1
→ -4	·	-6	1.6	3	0.4
> COc1ccc(OC)c(CNC(=O)c2coc(=O)c3ccccc23)c1
→ -8	2.0%	-25	-3.3	3	-1.5
> Cc1cc2cc(CN(Cc3ccc4c(c3)OCO4)Cc3nnnn3C3CCCC3)c(=O)[nH]c2cc1C
→ 11	-0.4%[38.3 µM]	5	-2.1	-4	4.1
> CC(=O)OC(C)[C@H]1CC[C@H]2[C@@H]3CC[C@H]4C[C@@H](OC(C)=O)CC[C@]4(C)C3=CC[C@]12C (some centres undefined)
→ -12	-0.1%	4	-2.0	-1	0.7
> COc1ccc(OCCSc2ccc(S(=O)(=O)N3CCCC3)cn2)cc1
→ 7	-0.5%	3	2.2	8	3.1
> COC(=O)c1sc2ncn(-n3c(C)ccc3C)c(=O)c2c1C
→ 3	1.2%	1	-1.1	-3	-0.1
> CC12CCC3c4ccc(O)cc4CCC3C1CCC2=O (centres undefined)
→ 4	-0.6%	-2	-0.7	-2	-0.7
> Cc1cnc(C(=O)Nc2cc(F)ccc2C)cn1
→ -7	1.3%	-7	1.0	11	-0.2
> O=C(CNc1cccc([N+](=O)[O-])c1)N/N=C/c1ccc([N+](=O)[O-])o1
→ -3	3.8%	5	6.0	0	-0.5
> O=C(CN1CCN(S(=O)(=O)c2ccc(C(F)(F)F)cc2)CC1)N1CCNC1=O
→ 0	1.1%	-5	2.0	-2	-0.3
> CCc1ccc(C2c3c(-c4cc(C)ccc4O)n[nH]c3C(=O)N2CCO)cc1 (centres undefined)
→ ·	-0.9%	-22	·	·	-0.2
> C/C(CC(=O)NC(C)(C)C)=N\NC(=O)c1ccco1
→ 9	3.6%	-4	-3.0	8	-0.2
> CCN(Cc1ccccc1)C(=O)Cn1c(=O)n(-c2ccccc2)c(=O)c2c1c1cc(C)ccc1n2C
→ ·	1.9%	2	·	·	-0.4
> Cc1cc(C)c2nc(NNC(=O)c3cc(=O)c4ccccc4o3)sc2c1
→ -13	5.1%	-1	3.3	-17	-0.7
> O=C(Nc1cccc2ccccc12)N1CCN(c2ccc(F)cc2)CC1
→ -6	4.7%	-10	-3.1	6	-1.3
> CCOc1ccc(C2c3[nH]c4ccccc4c3CCN2CCCn2cccn2)cc1 (centres undefined)
→ -16	4.2%	6	-6.1	-17	1.5
> CCn1c(CSc2nc3ccccc3n2C)nc2ccccc21
→ 1	0.4%	11	-3.3	0	0.6
> N#CC1=C2CCCCC2(O)NC1=O (centres undefined)
→ 2	1.3%	-14	-10	-2	-0.4
> O=S(=O)(c1cccc(-c2nc3n(n2)Cc2ccccc2-3)c1)N1CCCCC1
→ 0	3.3%	22	-3.2	-3	-0.4

Shown as tab-separated lines: part of the list above
SMILES	CtBP-E1A blk	PINK1 expr mod	TRPML1 inh	D2 ag	Six1-Eya2 inh	TRPML1 ag
Cc1cc(C)c(/C=C/c2onc(C)c2S(=O)(=O)N2CCC(C(=O)Nc3ccc(Cl)c(C(F)(F)F)c3)CC2)c(C)c1	·	0.9%	-17	·	·	0.5
C/C(CC(=O)NC(C)(C)C)=N\NC(=O)c1ccco1	9	3.6%	-4	-3.0	8	-0.2
COc1ccc(C2Nc3cccc4cccc(c34)N2)cc1	3	-1.2%	10	2.8	-8	1.7

Next records follow.
Fields – CtBP-E1A blk	PINK1 expr mod	TRPML1 inh	D2 ag	Six1-Eya2 inh	TRPML1 ag
> CCN(CC(=O)Nc1ccc(NC(C)=O)cc1)C(=O)/C=C/c1cn(-c2ccccc2)nc1-c1ccc(F)cc1
→ 5	24%	15	0.7	-3	0.9
> C/C(Cl)=C/CSc1nc2c(c(=O)[nH]c(=O)n2C)n1C(C)C
→ -1	0.8%	36	-2.5	-5	2.5
> CCOC(=O)c1ccc(NC(=O)c2csc3c2CCCCC3)cc1
→ ·	3.7%	-1	·	·	0.4
> O=C(NC(=S)NC(CO)c1ccccc1)c1ccc(F)cc1 (centres undefined)
→ 2	1.2%	·	3.5	0	·
> COc1cccc(CNC(=O)[C@H](C)NC(=O)C2CCN(S(=O)(=O)c3ccccc3)CC2)c1
→ 2	-0.7%	-10	2.3	2	0.0
> Cc1ccnc2nc(C(=O)OCCOc3ccc(F)cc3)nn12
→ 12	1.0%	10	1.4	12	-1.0
> CCCN(CC1CC1)C(=O)CSc1ncnc2sccc12
→ 12	2.7%	17	2.0	-2	0.4
> O=S(=O)(c1ccc(Br)c2nsnc12)N1CCOCC1
→ -18	4.6%	-19	-2.7	-17	1.5
> Cc1cc(C(=O)NNc2ccc(C)c(C)c2)no1
→ ·	4.1%	1	-12	-1	0.7
> Clc1cc(-c2ccccc2)nc(-c2ccccc2)n1
→ 22	0.8%	12	-11	35	-0.4
> CNCCCOc1ccc2c(c1)CCC2
→ 1	-2.4%	-3	-1.5	4	-0.3
> COc1ccc(N(C)S(=O)(=O)c2cccc(C(=O)Nc3nnc(C)s3)c2)cc1
→ -3	0.7%	-2	-1.3	5	2.1
> CCCCc1ccc(NS(=O)(=O)c2cccc(C(=O)N3CCNC(=O)C3)c2)cc1
→ 0	0.0%	6	0.4	-1	0.1
> Cc1ccsc1C(=O)N(Cc1nnc(-c2ccccc2Cl)o1)C1CC1
→ 5	2.3%	19	-3.0	-2	0.6
> COc1ccc(Nc2ncnc3c2nc2n3CCCCC2)cc1
→ ·	1.4%	-2	·	·	-1.0
> Oc1ccc2ccccc2c1C=NCc1cn2ccsc2n1
→ 6	-4.3%[38.3 µM]	-2	-2.1	-17	0.0
> Cc1[nH]oc(=O)c1N=Nc1ccc2[nH]c(=O)[nH]c2c1
→ ·	-1.0%	-6	3.4	-9	0.6
> N#C/C(=C\c1ccc[nH]1)C(=O)NCC1CCCO1 (centres undefined)
→ -21	-0.5%	-2	4.4	3	0.7
> O=C(NCc1ccccn1)C(=O)NCC1OCCN1S(=O)(=O)c1ccc([N+](=O)[O-])cc1 (centres undefined)
→ -5	-2.0%	-15	1.3	-1	0.4
> O=C(CCNC(=O)c1ccccc1Cl)Nc1ccc2c(c1)OCCO2
→ -7	3.5%	11	-3.2	-5	-0.8
> Cc1ccccc1CNC(=O)Cn1cnc(S(=O)(=O)N2CCCC2)c1
→ 15	0.6%	-2	-1.6	4	1.1
> NC(=O)c1ccccc1N(Cc1ccccc1)S(=O)(=O)c1ccccc1
→ 3	2.6%	12	-1.3	8	-0.4
> Cc1ccc(S(=O)(=O)N2CCC(C(=O)OCC(=O)N(C)c3ccccc3)CC2)cc1C
→ 0	0.9%	62	-4.3	-5	2.0
> Cc1ccc(C)c2[nH]c(=O)c(C(c3nnnn3CCc3ccccc3)N3CCOCC3)cc12 (centres undefined)
→ -3	-3.1%	-27	-5.4	-4	-1.2
> COc1ccc(NC(=O)c2ccccc2NC(=O)c2ccccc2C(=O)O)c(OC)c1
→ ·	2.0%	-1	1.6	5	1.4
> CC1Oc2ccccc2N(CC(=O)c2ccc(F)cc2)C1=O (centres undefined)
→ 6	-0.6%	25	-0.8	0	1.7
> COc1ccc(S(=O)(=O)N2CCC[C@H]2C(=O)NC2=NCCS2)cc1
→ 5	1.2%[38.3 µM]	-2	-2.7	3	-0.5
> O=C(Nc1ccc(Cl)cn1)c1cccc(F)c1
→ 6	1.9%	-15	-1.4	1	1.8
> Cc1cc(O)cc2c1C(=O)/C(=C/c1ccco1)O2
→ -1	1.6%	?	-8.5	5	9.5
> C/C(=N/NC(=O)CNC(=O)c1cccs1)c1ccc(Cl)cc1
→ -17	0.5%	27	3.5	9	0.0
> O=c1[nH]ncc(NCCc2ccccc2)c1Cl
→ 5	0.1%	2	-4.4	8	0.1
> CN(C(=O)COc1ccccc1C(=O)NCCc1ccccc1)c1ccccc1
→ 8	5.5%	-9	-6.5	0	-1.0
> CCOC(=O)c1cc(NC(=O)c2cnccn2)cc(C(=O)OCC)c1
→ 5	13%[38.3 µM]	-10	-1.8	6	-0.5
> Cc1nc2sc(C#N)c(N)c2c2c1CCCC2
→ -4	1.2%	6	-0.7	-6	1.0
> Cc1cc(Nc2cccc(C(F)(F)F)c2)nc2ccc(NC(=O)c3cccc(Cl)c3)cc12
→ ·	?	22	·	·	-0.2
> CCN(CC)S(=O)(=O)c1ccc(N2CCOCC2)c(NC(=O)CC(C)(C)C)c1
→ 6	3.0%	-4	3.8	6	0.3
> Clc1ccc(/C=N\Nc2ccccc2)cc1
→ ·	3.6%	3	-3.1	-2	0.7
> COc1ccc(C2OC(CCc3ccccc3)Cc3[nH]c(=S)[nH]c(=O)c32)cc1 (centres undefined)
→ -13	4.8%	·	·	-21	-0.1
> CCc1noc(N)c1C(=O)Nc1ccc(F)c(Cl)c1
→ -6	1.5%	-7	-4.3	-9	0.2
> O=S(=O)(c1ccc2ccccc2c1)N1CCN(C(=S)Nc2ccccc2F)CC1
→ -19	1.3%	·	-2.6	-3	·
> COc1cc2c(cc1OC)C1(Nc3c-2c(Cc2ccccc2)nn3-c2ccccc2)C(=O)Nc2ccccc21 (centres undefined)
→ -11	-0.1%	14	-0.3	-8	0.0
> Cc1ccc(S(=O)(=O)N2CCCCC2)cc1NC(=O)[C@@H]1CCCN1C(=O)c1cccs1
→ 6	1.3%	14	3.7	7	2.1
> COc1cc(C(C)=O)ccc1OCC(O)Cn1nc(C)c(Br)c1C (centres undefined)
→ -6	1.1%	-11	-2.2	-1	0.8
> Cc1ccc(-c2nnc(SCC(=O)NC(C)(C)C)nc2-c2ccc(C)cc2)cc1
→ ·	3.1%	63	·	·	2.4

Compound activity from PubChem BioAssay.
